# Screening data (PubChem)
# TRPML1 inh: qHTS for Inhibitors of the Human Mucolipin Transient Receptor Potential 1 (TRPML1). TRPML1-inducible cells, Ca2+ dye fluorescence, FDSS; hits give low values; inhibition of EC80 agonist-evoked calcium signal. activity change, negative = inhibition, % (concentration not given with the values). hit rate 0.02% among 390,000; in the data active means activity change below about -50%; inconclusive means about -30% to -50%; inactive means above about -30%;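 further: stimulus is agonist 54-4 at its EC80 concentration; on the % scale 0 is the no-effect control and ±100 the full control effect; compound concentration not given in the record; the text of the record puts the active cut at -80%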
#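 Tet-induced TRPML1-DL cells loaded with Ca8 no-wash calcium dye were read kinetically on FDSS. Compound addition was followed by EC80 agonist 54-4 (4 uM final); inhibition was read over 110 s.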
# Sfp PPTase inh: qHTS Assay for Inhibitors of Bacillus subtilis Sfp phosphopantetheinyl transferase (PPTase); 4'-phosphopantetheinyl transferase ffp (Bacillus subtilis), Q9F4F7; Biochemical Sfp PPTase activity, qHTS; hit rate 3.5% among 310,000; AID 1490, 2009; Potency, µM, for the others: max response, negative = inhibition, hits mostly inhibitors; active means well fitted inhibition curve with a large enough effect; inconclusive means small, poorly fitted or top-dose-only effect, or another doubt; inactive means no such curve, though single readings can be large or run the other way;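 further: the enzyme is Sfp with the accession as filed and its product quenches rhodamine fluorescence; potency means the concentration at half of the fitted maximal effect; 0% = enzyme reaction without inhibitor and -100% = no enzyme wells; top concentration of the series not given in the record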
#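 After 15 min at room temperature with compound, 15 nM Sfp received 5 uM rhodamine-CoA plus 12.5 uM BHQ-2-ybbR (50 mM Hepes pH 7.6, 10 mM MgCl2). Rate came from the fluorescence difference over 30 min, ex 525/em 598 nm.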
# TRPV1 PAM: HTS Assay for Compounds that Act as Potentiators of the Vanilloid Receptor 1. Transient receptor potential cation channel subfamily V member 1 (Homo sapiens), Q8NER1. TRPV1-expressing cells, Fluo-8 calcium influx, capsaicin EC20 potentiation; host cell line not named in the record; control for the full effect not named in the record. potentiation, % at 8.33 µM. hit rate 0.02% among 320,000. AID 540277, 2011; active means potentiation above 80%; inconclusive means 30% to 80%; inactive means below 30%; further: 0% is about no effect
# Target sequence (Q8NER1 whole entry, looked up): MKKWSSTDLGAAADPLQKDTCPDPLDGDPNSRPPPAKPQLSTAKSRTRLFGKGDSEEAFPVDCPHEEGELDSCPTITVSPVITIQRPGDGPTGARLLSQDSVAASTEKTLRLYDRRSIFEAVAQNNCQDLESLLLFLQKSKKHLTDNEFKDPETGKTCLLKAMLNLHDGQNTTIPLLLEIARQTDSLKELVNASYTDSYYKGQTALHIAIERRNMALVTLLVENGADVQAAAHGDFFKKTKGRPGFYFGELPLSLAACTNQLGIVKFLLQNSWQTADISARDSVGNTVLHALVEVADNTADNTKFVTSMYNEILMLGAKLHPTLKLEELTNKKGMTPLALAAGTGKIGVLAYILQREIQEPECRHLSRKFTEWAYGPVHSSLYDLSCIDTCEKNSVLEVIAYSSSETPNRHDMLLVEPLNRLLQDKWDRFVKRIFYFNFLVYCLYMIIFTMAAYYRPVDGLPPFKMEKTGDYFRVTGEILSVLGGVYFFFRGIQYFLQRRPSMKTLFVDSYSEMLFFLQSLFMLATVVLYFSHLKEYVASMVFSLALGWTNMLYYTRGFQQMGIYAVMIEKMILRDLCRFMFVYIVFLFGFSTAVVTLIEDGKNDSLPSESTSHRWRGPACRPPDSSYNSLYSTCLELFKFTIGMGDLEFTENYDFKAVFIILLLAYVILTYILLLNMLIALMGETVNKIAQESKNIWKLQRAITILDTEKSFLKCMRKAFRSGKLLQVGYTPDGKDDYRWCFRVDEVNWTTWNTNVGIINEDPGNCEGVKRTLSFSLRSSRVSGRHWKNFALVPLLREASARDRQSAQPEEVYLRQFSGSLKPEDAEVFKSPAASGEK
#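 Cells expressing TRPV1 were dye-loaded with Fluo-8 and read kinetically: 10 s baseline, 3 min after compound (agonist portion), then 2 min after EC20 capsaicin (allosteric enhancer portion). Calcium-bound dye fluorescence at 480/520 nm.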
# Menin-MLL FL inh: qHTS Assay for Inhibitors Targeting the Menin-MLL Interaction in MLL Related Leukemias: Competition With Fluorescein Labeled MLL-derived Peptide; FP activity change, % at 61.4 µM; 290,000 tested, under 10 active; Fluorescence polarization, fluorescein-MLL peptide displacement from menin; AID 1766, 2009; inconclusive = falling polarisation curve, or a change in total fluorescence; inactive = total fluorescence flat and polarisation flat or rising; no compound was filed as active; the % refers to the polarisation; negative = inhibition;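 further: % of control where 0% means no effect; inhibitors lower the polarisation; unlabelled MLL peptide was the positive control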
# gsp ag: qHTS for Agonist of gsp, the Etiologic Mutation Responsible for Fibrous Dysplasia/McCune-Albright Syndrome: qHTS; gsp mutant cells, cAMP HTRF, 30 min; control for the full effect not named in the record; Potency, µM (titrated, usually from 76.9 µM), for inactives: at the highest dose activation (cAMP increase), usual class: activators; hit rate 0.13% among 340,000; AID 624287, 2012; active = well fitted activation curve with a large enough effect; inconclusive = small, poorly fitted or top-dose-only effect, or another doubt; inactive = no such curve, though single readings can be large or run the other way; cell line not stated here;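 further: phosphodiesterase inhibitor Ro 20-1724 added with compounds to block cAMP breakdown; potency means the concentration at half of the fitted maximal effect; nearly all actives have a fitted effect of over 60% in size; about a fifth of the inactives were tested at one dose only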
#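 Cells in DMEM/10% FBS with G418 were pretreated with compounds in DMSO plus […] (300 uM stock) for 30 min at 37C. cAMP was measured by HTRF (cAMP-d2 plus anti-cAMP antibody-K) after 30 min at room temperature.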
# ClpP mod: qHTS Assay for Activators of ClpP | Potency, µM (top dose mostly 57.5 µM), for the others: at the top dose activity change, negative = active | hit rate 1.9% among 340,000 | ATP-dependent Clp protease proteolytic subunit (Bacillus subtilis (strain 168)), P80244 | purified B. subtilis ClpP, FRET peptide cleavage, 20 min; active = well fitted falling curve with a large enough effect; inconclusive = small, poorly fitted or top-dose-only effect; inactive = no such curve, though single readings can be large or run the other way; further: potency means the concentration at half of the fitted maximal effect; the source files actives as falling curves though it sought activators and does not explain the sign; nearly all actives have a fitted effect of over 65% in size; many hits overshoot -100%
# Target sequence (P80244 whole entry, looked up): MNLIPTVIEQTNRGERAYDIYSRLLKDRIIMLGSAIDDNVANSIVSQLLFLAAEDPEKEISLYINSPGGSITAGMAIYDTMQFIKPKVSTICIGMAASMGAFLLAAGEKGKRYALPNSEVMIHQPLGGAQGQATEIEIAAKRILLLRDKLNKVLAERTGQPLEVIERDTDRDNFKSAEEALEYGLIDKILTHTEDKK
#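 FRET quenching reversal measured ClpP activation: 10 microg/mL B. subtilis ClpP at pH 8 with the FRET-FV decapeptide, read at 430 nm after 320 nm excitation. The 20-min minus 0-min signal was scaled between DMSO/no-enzyme wells and ADEP (5.8 microM final).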
# gsp antag: qHTS for Antagonists of gsp, the Etiologic Mutation Responsible for Fibrous Dysplasia/McCune-Albright Syndrome: qHTS; AID 624288, 2012; Potency, µM (doses to about 76.9 µM), without a hit: at the highest dose activity change, negative = inhibition, hits mostly inhibitors; hit rate 0.4% among 340,000; gsp-mutant cells, cAMP HTRF, 30 min; control for the full effect not named in the record; active = falling curve of any shape with a large fitted effect; inconclusive = falling curve, mostly with a smaller effect; inactive = flat or rising curve; cell line not stated here;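 further: intracellular cAMP measured with PDE inhibitor Ro 20-1724 present during compound exposure; potency means the concentration at half of the fitted maximal effect; on the % scale 0 is the no-effect control and ±100 the full control effect; nearly all actives have a fitted effect of over 65% in size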
#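 Cells in G418 medium, seeded 16-24 h, 37C; buffer exchange to DPBS + 1 mM CaCl2, 0.5 mM MgCl2, 0.05% BSA; cpds in DMSO + […] (300 uM stock), 30 min 37C; HTRF cAMP detection.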
# * = called active by the depositor; ? = inconclusive; nt = not tested or not shown; & = joins results of further samples; [ ] = dose if it differs, or a comment.
1) CCN=C(NC#N)SCc1c(F)cccc1Cl
2) COc1cc(OC)cc(-c2sc3ccc(OC)cc3c2C#CCCO)c1
3) CNC(=S)NC(CC(=O)OC)c1ccc2c(c1)OCO2 (stereo not given)
4) Oc1c(C=NCc2ccncc2)sc2ccccc12
5) COc1ccccc1CNC(=O)C1CCN(S(=O)(=O)c2ccc(N3CCCC3=O)cc2)CC1
6) O=c1c2cnn(-c3ccc(F)cc3)c2ncn1Cc1ccccn1
7) CCOc1ccccc1C(=O)NCCCn1ccnc1
8) COc1ccc(NC(=O)NC(C)c2ccc3c(c2)OCO3)cc1OC (stereo not given)
9) O=C(O)CN(c1cccc(C(F)(F)F)c1)S(=O)(=O)c1ccccc1
10) COc1cc2c(cc1OC)CN(Cc1cc(=O)oc3cc(C)c(Cl)cc13)CC2
Compound	1	2	3	4	5	6	7	8	9	10
TRPML1 inh	-2	-9	11	-6	-5	nt	-5	-1	15	-27
Sfp PPTase inh	32%[activator]	nt	10%	28µM*	0%	11%	5%	-1%	22%	-12%
TRPV1 PAM	7	-1	3	13	0	-13	17	-14	6	1
Menin-MLL FL inh	1.6	nt	-5.3	19	nt	1.5	3.4	-1.7	1.1	8.2
gsp ag	-8%	nt	-3%	8%	-1%	nt	8%	3%[15.4 µM]	-4%[15.4 µM]	-9%[15.4 µM]
ClpP mod	1.3%	4.4%	2.0%	-10%	1.1%	nt	-1.4%	-1.1%	nt	1.3%
gsp antag	4%	-3%	13%	-13%	-14%	nt	12%	5%	nt	5%

11) CC1(C(=O)N(CC(=O)NC2CCCC2)Cc2ccco2)CC(=O)N=C2C=CC=CN21 (stereo not given)
12) NC(=O)c1cc2ccccc2o/c1=N\NC(=O)c1ccc(F)cc1
13) NC(=NC(=O)c1ccccc1)N1N=CCC1c1ccccc1 (stereo not given)
14) Cc1noc(C)c1C(=O)Nc1ccc2ccccc2c1
15) CC1=NOC(=O)/C1=C\c1ccc2c(c1)OCO2
16) CCCNC(=O)c1ccc(CN2CCOCC2)cc1
17) NNC(=O)c1ccc(-c2cccc([N+](=O)[O-])c2)o1
18) Cn1cnnc1SCCOc1ccc(Cl)cc1
19) COCC(C)n1c(-c2ccc3c(c2)NC(=O)CO3)csc1=Nc1ccc(OC(F)F)cc1 (stereo not given)
20) COc1ccc(NC(=O)CN(C)C(=O)C23CC4CC(CC(C4)C2)C3)cc1
Compound	11	12	13	14	15	16	17	18	19	20
TRPML1 inh	13	12	-3	-22	-1	-7	12	-13	12&8	-3
Sfp PPTase inh	18%	6%	5%	11%	-27%	4%	-2%	13%	2%	19%
TRPV1 PAM	0	-11	-14	6	11	7	-6	4	4	-3
Menin-MLL FL inh	5.1	2.4	-3.0	nt	1.6	-0.1	-2.2	0.4	0.9	1.2
gsp ag	2%	-2%	2%	-26%	26%	?	5%	-3%[15.4 µM]	-12%&4%	-71%[inhibitor]
ClpP mod	3.2µM*	-5.5%	nt	-3.2%	nt	1.1%	-1.2%	-1.1%	0.3%	-0.8%
gsp antag	4%	-10%	?	2%	-10%	5%	-3%	-3%	?	-8%

# Printed as active in Sfp PPTase inh, among the entries above:
No.	Molecule	TRPML1 inh	Sfp PPTase inh	Menin-MLL FL inh	gsp ag
4	Oc1c(C=NCc2ccncc2)sc2ccccc12	-6	28µM*	19	8%

# (list continues)
21) COc1cccc(C(=O)N(Cc2cc3cc(C)ccc3[nH]c2=O)CC2CCCO2)c1 (stereo not given)
22) CCOc1ccc(S(=O)(=O)N2CCCC(C(=O)Nc3cc(C)cc(C)c3)C2)cc1 (stereo not given)
23) COc1cc(NS(=O)(=O)c2ccc(NC(=S)NC(=O)C(C)(C)C)cc2)nc(OC)n1
24) Cc1cccc(C)c1NC(=O)CNC(=O)c1cn(-c2ccccc2)nc1-c1ccccc1
25) COc1ccccc1N1CCN(C/C(O)=C(\C#N)c2nc(-c3ccccc3)cs2)CC1
26) COc1ccc(Cn2c(C)nnc2-c2cnn(C)c2N)cc1OC
27) Cc1ccc2c(c1)NC(=O)CC(c1ccccc1)=N2
28) Cc1ccc(C(=O)OCC(=O)NC2CCCCC2)o1
29) Cc1ccc(NC(=O)N2CCCC2C(=O)NCCC2=CCCCC2)cc1 (stereo not given)
30) Cc1cc(NC(=O)c2ccccc2F)n(-c2nc3ccccc3[nH]2)n1
Compound	21	22	23	24	25	26	27	28	29	30
TRPML1 inh	-15	-5	13	-9	-2	-14	28	1	10	14
Sfp PPTase inh	6%	17%	6%	9%	-4%	8%	8%	-5%	-2%	11%
TRPV1 PAM	3	2	-1	18	?	7	-7	2	-1	-2
Menin-MLL FL inh	3.9	3.3	1.4	-4.4	19	-3.2	-4.0	nt	-1.5	1.7
gsp ag	-34%[inhibitor]	-4%[15.4 µM]	13%	-53%[inhibitor]	-11%	-7%	19%	11%[15.4 µM]	-1%	0%
ClpP mod	32µM*	nt	-1.0%	-4.4%	1.2%	1.6%	0.9%	-0.9%	0.3%	31%
gsp antag	-4%	1%	-5%	-7%	-21%	9%	0%	12%	-1%	-5%

31) CC(=O)Nc1nc2c(F)cccc2s1
32) Cc1ccc(S(=O)(=O)N2CCN(C(=O)N3CCOCC3)C2c2ccc(N(C)C)cc2)cc1 (stereo not given)
33) COc1ccccc1NC(=S)N(CCc1nc2cc(C)c(C)cc2[nH]1)Cc1cccnc1
34) Cc1c(C)[n+](=O)c2c(n1[O-])CCC2
35) Cn1c(=O)c2[nH]c(=O)cnc2n(C)c1=S
36) Cc1cc(C(=O)NNC(=O)COc2c(C)cc(Br)cc2C)n[nH]1
37) CC(=O)C1=C(C)NC(SCC(=O)c2ccc(Cl)c(Cl)c2)=C(C#N)C1c1ccco1 (stereo not given)
38) Cc1ccc(C(=O)N/C(=C\c2cccs2)C(=O)NCCCn2ccnc2)cc1C
39) CC(=O)N1CCN(c2ccc(NC(=O)COc3ccc(Cl)cc3Cl)cc2)CC1
40) CCC(C)c1ccccc1N1CC(C(=O)N(C)CC(=O)Nc2cccc(F)c2)CC1=O (stereo not given)
Compound	31	32	33	34	35	36	37	38	39	40
TRPML1 inh	-3	0	11	11	-20	-10	-2	-21	-1	-6
Sfp PPTase inh	nt	6%	-5%	14%	18µM*	10%	3.5µM*	4%	-8%	nt
TRPV1 PAM	nt	3	nt	-1	-5	16	5	-9	2	0
Menin-MLL FL inh	nt	1.8	5.4	2.9	16	nt	17	3.3	1.6	nt
gsp ag	-27%	23%	6%	-4%	?	26%	6%	21%	6%	-29%[15.4 µM]
ClpP mod	-1.1%	2.1%	-0.2%	-0.6%	-1.1%	1.0%	-0.3%	-0.8%	-1.4%	nt
gsp antag	0%	-7%	-6%	13%	0%	11%	-6%	-11%	-5%	6%

# Among those listed so far, these contain an NH in an aromatic ring:
21) COc1cccc(C(=O)N(Cc2cc3cc(C)ccc3[nH]c2=O)CC2CCCO2)c1 (stereo not given)
30) Cc1cc(NC(=O)c2ccccc2F)n(-c2nc3ccccc3[nH]2)n1
33) COc1ccccc1NC(=S)N(CCc1nc2cc(C)c(C)cc2[nH]1)Cc1cccnc1
35) Cn1c(=O)c2[nH]c(=O)cnc2n(C)c1=S
36) Cc1cc(C(=O)NNC(=O)COc2c(C)cc(Br)cc2C)n[nH]1
Compound	21	30	33	35	36
TRPML1 inh	-15	14	11	-20	-10
Sfp PPTase inh	6%	11%	-5%	18µM*	10%
TRPV1 PAM	3	-2	nt	-5	16
Menin-MLL FL inh	3.9	1.7	5.4	16	nt
gsp ag	-34%[inhibitor]	0%	6%	?	26%
ClpP mod	32µM*	31%	-0.2%	-1.1%	1.0%
gsp antag	-4%	-5%	-6%	0%	11%

# The list goes on:
41) COc1cc(S(=O)(=O)Nc2cccc(C)c2)ccc1N=Cc1c(C)[nH]n(-c2ccccc2)c1=O
42) CCOc1cc(C(=O)N/N=C\c2cn(CC)nc2C)cc(OCC)c1OCC
43) CCc1noc(C)c1C(=O)N1CCN(S(=O)(=O)c2ccc(Cl)cc2)CC1
44) COc1ccc(-c2csc(NC(=O)c3cc(-c4cccs4)nc4ccccc34)n2)c(OC)c1
45) O=C(CN1C(=O)c2ccccc2S1(=O)=O)c1ccc(O)c(O)c1
46) N#Cc1ccc(NC(=O)COc2ccc(-n3cnnn3)cc2)cc1
47) Cc1ccc(NC(=O)/C(C#N)=C/c2ccsc2)c(C)c1
48) CC(CN1CCCCC1)C(=O)NN (stereo not given)
Compound	41	42	43	44	45	46	47	48
TRPML1 inh	nt	-8	-6	-11	-7	11	-15	-2
Sfp PPTase inh	7%	-3%	nt	5%	?	nt	5%	6%
TRPV1 PAM	3	3	-1	8	-2	nt	-42	3
Menin-MLL FL inh	6.7	1.5	nt	nt	3.3	nt	1.7	-3.2
gsp ag	nt	5%[15.4 µM]	-58%[inhibitor]	-8%	?	12%	-6%	4%
ClpP mod	nt	-0.7%	1.3%	-3.9%	nt	nt	-0.4%	nt
gsp antag	nt	-12%	2%	10%	-6%	1%	-7%	5%
